# TRPML1 ag: activates the human TRPML1 channel. Q9GZU1. TRPML1-expressing cells, Ca2+ dye fluorescence, FDSS; host cell line not named in the record; reference of the full effect not given here. activation, % (no concentration beside the values). 410,000 compounds, 0.12% hits. AID 624414; in the data active = activation above about 50%; inconclusive = about 30% to 50%; inactive = below about 30%; also: 0% is about no effect; the text of the record puts the active cut at 80%
#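 TRPML1-DL cells, Tet-induced overnight (~16 h, 37 degrees C), loaded 45-90 min at room temperature with Ca8 no-wash calcium dye plus quencher. FDSS fluorescence: 10 s baseline, compound pin-transfer, 110 s agonist read, then EC80 54-4 (4uM final) and 110 s antagonist read.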
# TRPV1 potentiator: enhances activation of the human vanilloid receptor TRPV1; AID 540277; TRPV1-expressing cells, Fluo-8 calcium influx, capsaicin EC20 potentiation; host cell line not named in the record; control for the full effect not named in the record; potentiation, % at 8.33 µM; 320,000 compounds, 0.02% hits; active means potentiation above 80%; inconclusive means 30% to 80%; inactive means below 30%; also: 0% is about no effect
# Target sequence (Q8NER1 whole entry, looked up): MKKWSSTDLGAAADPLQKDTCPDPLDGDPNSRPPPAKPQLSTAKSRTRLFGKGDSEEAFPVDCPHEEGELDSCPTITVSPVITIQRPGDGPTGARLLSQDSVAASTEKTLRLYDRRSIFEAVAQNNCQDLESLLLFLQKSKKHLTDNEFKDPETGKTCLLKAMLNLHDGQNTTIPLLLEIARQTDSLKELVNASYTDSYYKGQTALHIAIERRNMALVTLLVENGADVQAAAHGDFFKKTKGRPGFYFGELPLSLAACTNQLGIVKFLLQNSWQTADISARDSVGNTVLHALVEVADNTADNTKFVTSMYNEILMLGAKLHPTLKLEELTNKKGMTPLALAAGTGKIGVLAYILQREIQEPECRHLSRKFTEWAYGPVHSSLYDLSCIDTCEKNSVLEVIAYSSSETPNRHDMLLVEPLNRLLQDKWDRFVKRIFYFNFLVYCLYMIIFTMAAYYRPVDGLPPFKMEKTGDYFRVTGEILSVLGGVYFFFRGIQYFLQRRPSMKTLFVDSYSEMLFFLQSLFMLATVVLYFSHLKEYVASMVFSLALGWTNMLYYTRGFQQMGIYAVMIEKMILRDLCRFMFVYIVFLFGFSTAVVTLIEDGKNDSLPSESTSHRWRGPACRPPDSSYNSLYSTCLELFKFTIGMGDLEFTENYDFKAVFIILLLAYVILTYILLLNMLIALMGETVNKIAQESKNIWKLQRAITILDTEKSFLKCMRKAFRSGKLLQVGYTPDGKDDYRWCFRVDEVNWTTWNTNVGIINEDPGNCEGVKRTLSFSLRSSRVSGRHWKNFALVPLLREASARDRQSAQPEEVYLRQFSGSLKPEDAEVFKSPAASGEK
#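 Cells expressing TRPV1 were dye-loaded with Fluo-8 and read kinetically: 10 s baseline, 3 min after compound (agonist portion), then 2 min after EC20 capsaicin (allosteric enhancer portion). Calcium-bound dye fluorescence at 480/520 nm.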
# D2 potentiator: human D2 receptor positive allosteric modulation. P14416. potentiation, % (test concentration not listed). AID 624464. 360,000 compounds, 0.23% hits. DiscoveRx D2 beta-arrestin cells, luminescence, 90 min; 100% = 57 uM dopamine signal; active = potentiation of 50% or more; inconclusive = 30% to 50%; inactive = 30% or less;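 also: compound concentration not given in the record; tested on top of an EC20 dose of dopamine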
#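 D2 cells co-treated with compound plus 50 nM dopamine (EC20) for 90 min at 37 deg C to detect potentiation. Beta-arrestin recruitment was read as enzyme-fragment luminescence after 1 h at ambient temperature. Full response was set by 57 uM dopamine.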
# CtBP-E1A inh: blocks the CtBP interaction with E1A | 340,000 compounds, 0.49% hits | activity change, % (no concentration beside the values) | AlphaScreen GST-E1A/His-CtBP binding, 1536-well; hits give low values; control for the full effect not named in the record; in the data active means activity change below about -65%; inconclusive means about -30% to -65%; inactive means above about -30%; also: % is scaled to controls: 0 for no effect and ±100 for the full control effect
#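 Homogeneous bead-based format: GST-tagged E1A captured on glutathione donor beads, His-tagged CtBP on nickel acceptor beads; compounds precede bead addition by 2 h at 37 °C.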
# Six1-Eya2 inh: blocks human Six1 binding to Eya2; 360,000 compounds, 0.56% hits; AlphaScreen GST-Six1/His-Eya2 binding, biochemical; hits give low values; control for the full effect not named in the record; Q15475+O00167; activity change, % (test concentration not listed); AID 651725; in the data active = activity change below about -65%; inconclusive = about -30% to -65%; inactive = above about -30%; also: % is scaled to controls: 0 for no effect and ±100 for the full control effect
#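 AlphaScreen with GST-Six1 and His-Eya2 (5X mix: 250 nM and 500 nM), glutathione donor and nickel acceptor beads; buffer 50 mM Tris pH 8.0, 300 mM NaCl, 1 mM TCEP; 1 h at 37 C in the dark.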
# TRPML1 inh: human mucolipin-1 channel inhibition | TRPML1-inducible cells, Ca2+ dye fluorescence, FDSS; hits give low values; inhibition of EC80 agonist-evoked calcium signal | activity change, negative = inhibition, % (test concentration not listed) | 390,000 compounds, 0.02% hits | AID 624415; in the data active means activity change below about -50%; inconclusive means about -30% to -50%; inactive means above about -30%;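 also: stimulus is agonist 54-4 at its EC80 concentration; % is scaled to controls: 0 for no effect and ±100 for the full control effect; compound concentration not given in the record; the text of the record puts the active cut at -80%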
#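 Tet-induced TRPML1-DL cells loaded with Ca8 no-wash calcium dye were read kinetically on FDSS. Compound addition was followed by EC80 agonist 54-4 (4 uM final); inhibition was read over 110 s.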
# * hit, by the source's call; ? = inconclusive; . = not tested or not shown; & = joins results of further samples. An unsorted share of the library, and some 0.95% of all compounds hit somewhere here.
SMILES | TRPML1 ag | TRPV1 potentiator | D2 potentiator | CtBP-E1A inh | Six1-Eya2 inh | TRPML1 inh
COc1cc(OC)cc(C(=O)NCC(=O)NC(C)CCc2ccccc2)c1 (configuration not stated) | -1.6 | -14 | -13 | 1 | -1 | -4
CCCCn1c(=NC(=O)c2cccnc2)c(C#N)cc2c(=O)n3cccc(C)c3nc21 | 2.0 | 15 | -3 | -15 | 0 | 32
FC(F)(F)c1nc(SCc2ccccc2)n[nH]1 | 1.0 | . | -4 | 0 | 3 | -7
Cc1ccc(S(=O)(=O)N/N=C\c2ccc3c(c2)OCO3)cc1 | -0.2 | 1 | -18 | 6 | -1 | 16
CN(C)/C=N/C(=S)Nc1cc(Cl)cc(Cl)c1 | -0.5 | 3 | -1 | -24 | -1 | 14
COC(=O)Nc1ccc(S(=O)(=O)Nc2cnc3ccccc3n2)cc1 | -0.7 | -5 | -5 | -13 | -2 | 6
CC(C)[C@H](NC(=O)c1ccccc1F)C(=O)OCCN1C(=O)c2ccccc2C1=O | 1.7 | . | -1 | -3 | 0 | -10
CCOc1ccc(NC(=O)CSc2nnnn2C2CC2)cc1S(=O)(=O)N1CCCC1 | -0.3 | 7 | -3 | -5 | 2 | 7
COc1ccc(NC(=O)c2ccco2)cc1NC(=O)c1ccccc1[N+](=O)[O-] | -0.1&-0.2 | 4 | -6 | -17 | 0 | -16&-5
COC(=O)c1ccccc1Nc1ccccc1 | 2.3 | 3 | -8 | 44 | 39 | 12
Cc1noc(C)c1CS(=O)(=O)Cc1ccc(Cl)cc1 | -0.5 | 4 | 0 | 7 | 1 | -5
CCN1CCN(C(=S)NC(=O)c2cccc(Br)c2)CC1 | -0.3 | . | -28 | 6 | 0 | 4
Cc1cccc(N(C(=O)CNC(=O)c2cccs2)C(C(=O)NC2CCCC2)c2cccnc2)c1 (configuration not stated) | 1.0 | 6 | -9 | -4 | -1 | 9
CC(=O)Nc1ccc(S(=O)(=O)NCC2CCC(C(=O)NCCc3ccccc3)CC2)cc1 (configuration not stated) | 0.0&-0.2 | -6 | -2 | 1 | 5 | 2&25
O=C(Nc1ccccc1N1CCOCC1)C1CCN(S(=O)(=O)c2ccc(Cl)cc2)CC1 | 1.0 | 15 | 5 | 0 | 23 | -12

SMILES | TRPML1 ag | TRPV1 potentiator | D2 potentiator | CtBP-E1A inh | Six1-Eya2 inh | TRPML1 inh
CCOC(=O)C1CN(S(=O)(=O)c2ccc(OC)cc2)c2cc(CC(=O)OC)ccc2O1 (configuration not stated) | 1.9 | 7 | -7 | -3 | 3 | -17
CCOC(=O)N1CCN(C(=O)CN(C2CCCCC2)S(=O)(=O)c2ccc(Cl)cc2)CC1 | 0.0 | -17 | -7 | 45 | 0 | -5
CCC(CC)C(=O)NCCc1cc2c(OC)ccc(OC)c2[nH]c1=O | 0.4 | 1 | -25 | -5 | 0 | -2
O=C(c1ccc([N+](=O)[O-])o1)N1CCc2ccccc21 | -0.6 | 0 | 7 | -3 | 0 | -2
O=C(Nc1ccc(Cl)cc1)NC1CCCCC1 | 1.0 | -21 | -3 | -2 | 8 | 10
O=C(c1ccsc1)N1CCCC(N2CCN(c3cccc(C(F)(F)F)c3)CC2)C1 (configuration not stated) | 0.9 | -13 | -28 | -1 | -4 | 9
CCc1ccc(-c2ccc(SCC(=O)NC3CCCC3)nn2)cc1 | -0.8 | . | 4 | 3 | 4 | 2
CN(c1ccccc1)S(=O)(=O)c1cc(C(=O)N2CCN(c3ccccn3)CC2)ccc1Cl | -1.6 | 4 | -12 | 4 | 2 | 12
Cc1ccnc(NC(=O)C2CC(=O)N(c3ccc4c(c3)OCCO4)C2)c1 (configuration not stated) | -0.1 | ? | -31 | -15 | -12 | -13
COc1ccc(C2C(C(N)=O)=C(C)Nc3nc(-c4cccc(Cl)c4)nn32)cc1OC (configuration not stated) | 0.4 | 1 | -2 | -1 | 1 | 8
COc1ccc([C@H]2CC(=O)C=C(c3ccc(C(F)(F)F)c(C(F)(F)F)c3)C2)cc1OC | 1.1 | 2 | 3 | 0 | 0 | -9
COc1ccc([N+](=O)[O-])cc1N(CC(=O)Nc1ccccc1C(=O)N1CCOCC1)S(C)(=O)=O | 1.1 | 16 | -1 | -1 | 3 | -10
COc1ccc(OCC(=O)Nc2ccc(S(=O)(=O)Nc3nc(C)cc(C)n3)cc2)cc1 | 0.6 | 12 | -5 | 10 | 13 | -11
COC(=O)[C@H](CC(C)C)N1Cc2cc(OC)cc(OC)c2-c2ccccc2S1(=O)=O | 0.0 | . | . | -1 | 2 | 28
CCc1ccc(OCc2nnc(SCC(=O)N3CCOCC3)o2)cc1 | 0.5 | -29 | -3 | 6 | 13 | 14

# Results in CtBP-E1A inh (6 entries from above):
smiles | CtBP-E1A inh
COc1ccc(C2C(C(N)=O)=C(C)Nc3nc(-c4cccc(Cl)c4)nn32)cc1OC (configuration not stated) | -1
COc1ccc([C@H]2CC(=O)C=C(c3ccc(C(F)(F)F)c(C(F)(F)F)c3)C2)cc1OC | 0
COc1ccc([N+](=O)[O-])cc1N(CC(=O)Nc1ccccc1C(=O)N1CCOCC1)S(C)(=O)=O | -1
COc1ccc(OCC(=O)Nc2ccc(S(=O)(=O)Nc3nc(C)cc(C)n3)cc2)cc1 | 10
COC(=O)[C@H](CC(C)C)N1Cc2cc(OC)cc(OC)c2-c2ccccc2S1(=O)=O | -1
CCc1ccc(OCc2nnc(SCC(=O)N3CCOCC3)o2)cc1 | 6

# (cont.)
SMILES | TRPML1 ag | TRPV1 potentiator | D2 potentiator | CtBP-E1A inh | Six1-Eya2 inh | TRPML1 inh
Clc1ccc2nc3ccccn3c2c1 | -1.0 | 2 | 10 | 6 | 0 | 12
CS(=O)(=O)Nc1nnc(SCC(=O)Nc2cccc([N+](=O)[O-])c2)s1 | 0.2 | -4 | -4 | 11 | -7 | 15
Cc1noc(C)c1C(=O)NCc1ccco1 | 0.1 | -1 | -4 | 9 | 3 | 42
CCOC(=O)c1cnc2c([N+](=O)[O-])cnn2c1C | 0.1 | 17 | 0 | 0 | 11 | -11
O=C(NC1CCN(Cc2ccccc2)CC1)c1cccc(S(=O)(=O)Nc2ccc(Br)cc2)c1 | -0.2 | 10 | -32 | -3 | -1 | -3
COCCNC(=O)C(c1ccc(F)cc1)N(C(=O)CCC(=O)Nc1ccccn1)C1CCCCC1 (configuration not stated) | 0.3 | 2 | -4 | 5 | 0 | 13
CC(CCc1ccccc1)NC(=O)CN1CCOc2ccccc21 (configuration not stated) | 1.1 | . | 0 | -2 | -9 | -4
O=C(Nc1ccc(Oc2ccc(NC(=O)C3CCCO3)cc2)cc1)C1CCCO1 (configuration not stated) | -0.5 | 21 | 0 | 20 | 4 | -14
C1CCCN(CCCCN2CCCCCC2)CC1 | -0.1 | 3 | -19 | 2 | 0 | 10
O=C1CCCN1CC(O)CS(=O)(=O)Cc1ccc(Cl)c(Cl)c1 (configuration not stated) | 1.4 | 9 | 5 | . | 1 | -19
COc1ccc(/C=N\NC(=O)c2ccc(=O)[nH]n2)cc1O | -0.1 | -30 | -2 | -9 | -14 | -1
Cc1cc(C(F)F)n2ncc(C(=O)NCc3ccccc3)c2n1 | -0.3 | -6 | -5 | -1 | 1 | 8
CCOc1ccc(NC(=O)NC23CC4CC(CC(C4)C2)C3)cc1 | -0.6 | 26 | -7 | 0 | 0 | 0
CC(C)NC(=O)c1onc(CSc2ccc(F)cc2)c1C(=O)O | -0.4 | 3 | -36 | 6 | -1 | -11
CCc1nn2c(NCCOC)cc(C)nc2c1-c1ccc(F)cc1 | 0.7 | -15 | 4 | 18 | 18 | 8

# Full records as entered above. Values in the order: TRPML1 ag, TRPV1 potentiator, D2 potentiator, CtBP-E1A inh, Six1-Eya2 inh, TRPML1 inh
# COCCNC(=O)C(c1ccc(F)cc1)N(C(=O)CCC(=O)Nc1ccccn1)C1CCCCC1 (configuration not stated) in the list: 0.3, 2, -4, 5, 0, 13
# CC(=O)Nc1ccc(S(=O)(=O)NCC2CCC(C(=O)NCCc3ccccc3)CC2)cc1 (configuration not stated) in the list: 0.0&-0.2, -6, -2, 1, 5, 2&25
# Cc1noc(C)c1C(=O)NCc1ccco1 in the list: 0.1, -1, -4, 9, 3, 42
# COc1cc(OC)cc(C(=O)NCC(=O)NC(C)CCc2ccccc2)c1 (configuration not stated) in the list: -1.6, -14, -13, 1, -1, -4

# Reprinted at random: 2 records from the list, in no set order.
SMILES | TRPML1 ag | TRPV1 potentiator | D2 potentiator | CtBP-E1A inh | Six1-Eya2 inh | TRPML1 inh
Cc1cc(C(F)F)n2ncc(C(=O)NCc3ccccc3)c2n1 | -0.3 | -6 | -5 | -1 | 1 | 8
CC(C)NC(=O)c1onc(CSc2ccc(F)cc2)c1C(=O)O | -0.4 | 3 | -36 | 6 | -1 | -11

# The list goes on:
SMILES | TRPML1 ag | TRPV1 potentiator | D2 potentiator | CtBP-E1A inh | Six1-Eya2 inh | TRPML1 inh
O=C1N/C(=N\N=C\c2cccs2)SC1Cc1cccc(Cl)c1Cl (configuration not stated) | -0.3 | -2 | -10 | -9 | 1 | -15
O=C(CSc1ccccn1)c1ccc2c(c1)OCO2 | -0.4 | -16 | 6 | 5 | 6 | 6
COc1cccc(CN2CCNC(=O)C2CC(=O)N(C)CCC2CCOCC2)c1OC (configuration not stated) | 0.6 | -6 | -22 | 5 | -2 | 1
O=C(C1CC1)N1CCc2cc(Br)cc(S(=O)(=O)NCC3COc4ccccc4O3)c21 (configuration not stated) | -0.7 | 5 | 0 | -7 | -4 | 19
COc1ccccc1C1CCN(C(=O)c2cnn(-c3ccccc3)c2C)CC1 | -0.4 | 6 | 4 | . | -2 | -7
Cc1ccc(C)c(SCC(=O)Nc2cc(S(=O)(=O)N3CCOCC3)ccc2C)c1 | 0.6 | 16 | -2 | 2 | -2 | -1
CCOC(=O)C1=C(CSc2nc(-c3ccccc3)ccc2C#N)OC(N)=C(C#N)C1c1ccccc1 (configuration not stated) | 4.1 | 13 | -2 | -2 | -13 | 1
CCOC(=O)CNc1nc2ccccc2n2c(C)nnc12 | -0.1&0.2 | -26 | -3 | 3 | 2 | -3&-2
COc1ccc(NS(=O)(=O)c2ccc(O)c(C(=O)OCC(=O)NC(C)C3CC4CCC3C4)c2)cc1 (configuration not stated) | -0.4 | -8 | 5 | 0 | 4 | -6
COC(=O)c1ccc(Cn2c(C)cc(C)[n+]2C)o1 | 6.6 | -7 | -11 | 0 | 3 | 11
COc1cccc(/C=C/C(=O)OCC(=O)c2ccc3c(c2)NC(=O)CO3)c1 | -0.6 | 6 | -5 | ? | -2 | -12
Cc1cc(N2CCCC(C(=O)Nc3cccc4ccccc34)C2)n2ncnc2n1 (configuration not stated) | -0.4 | 1 | -3 | -5 | -13 | -6
CSc1nsc(SCC(=O)Nc2cccc(NC(C)=O)c2)n1 | -1.4 | 3 | 3 | 10 | 1 | 18

# High-throughput results (PubChem BioAssay)
